Screening data: PubChem, National Center for Advancing Translational Sciences (NCATS)
VACV mCherry inh = inhibitors of vaccinia virus infection (mCherry reporter signal) | Vaccinia virus mCherry reporter infection, fluorescence; about a quarter of the inactives have no number | AID 720579 | Potency, µM (top dose mostly 36.5 µM), without a hit: at the top dose activity change, negative = inhibition, most hits filed as inhibitors | actives 0.63% (n = 310,000); active = well fitted inhibition curve with a large enough effect; inconclusive = small, poorly fitted or top-dose-only effect; inactive = no such curve, though single readings can be large or run the other way; tested in A549 cells; further: nearly all actives have a fitted effect of over 35% in size; inactives centre near -10
VACV Venus inh = inhibitors of vaccinia virus (Venus reporter); Vaccinia virus Venus reporter expression, fluorescence; Potency, µM (highest dose often 36.5 µM), for the others: at the highest dose activity change, negative = inhibition, actives largely listed as inhibitors; actives 0.46% (n = 330,000); AID 720580; active means well fitted inhibition curve with a large enough effect; inconclusive means small, poorly fitted or top-dose-only effect; inactive means no such curve, though single readings can be large or run the other way; tested in A549 cells; further: nearly all actives have a fitted effect of over 30% in size; inactives centre near -10
Active calls of the source: *; i = inactive; ? = inconclusive; . = not tested or not shown; & = joins results of further samples; [ ] = remark or other dose. On the % scale 0 is the no-effect control and ±100 the full control effect; potency means the concentration at half of the fitted maximal effect.

SMILES	VACV mCherry inh	VACV Venus inh
COc1ccccc1-c1nc2cc3ccccc3cc2nc1-c1ccccc1	i	-2.4%
Cc1ccc(NC(=O)c2ccc(OCC3CCCO3)cc2)nc1 (stereo not given)	-19.0%	-2.9%
O=C(O)C1CSC2(c3ccc(F)cc3)CCC(=O)N12 (stereo not given)	-8.7%	-18.0%
COc1ccc2[nH]c(=O)c(CN(C)C(=O)COc3ccccc3)cc2c1	.	-22.7%
Cc1noc(C)c1C(=O)NCCC1=CCCCC1	i	-12.1%
COc1cc(F)ccc1-c1cc(C(=O)NCC2CCCCC2)[nH]n1	i	-10.3%
COc1ccc(CCNC(=O)C(C)n2nc(C)c3c(C)n(-c4ccc(C)cc4)nc3c2=O)c(OC)c1 (stereo not given)	?	?
CCC(c1nnc(SCC(=O)Nc2cc(Cl)ccc2C#N)n1C1CCCCC1)N(C)C (stereo not given)	?	-13.7%
C[C@@H](Nc1nc(-c2ccccc2)nc2c1oc1ccccc12)C(=O)O	?	-2.0%
COC(=O)c1sccc1NC(=O)COc1ccccc1Cl	-8.5%	1.0%

The closing 4 records of the part before come first, to join the parts:
SMILES	VACV mCherry inh	VACV Venus inh
COc1ccc(CCNC(=O)C(C)n2nc(C)c3c(C)n(-c4ccc(C)cc4)nc3c2=O)c(OC)c1 (stereo not given)	?	?
CCC(c1nnc(SCC(=O)Nc2cc(Cl)ccc2C#N)n1C1CCCCC1)N(C)C (stereo not given)	?	-13.7%
C[C@@H](Nc1nc(-c2ccccc2)nc2c1oc1ccccc12)C(=O)O	?	-2.0%
COC(=O)c1sccc1NC(=O)COc1ccccc1Cl	-8.5%	1.0%
CCCc1cc(-c2[nH]ncc2-c2ccc(C(=O)OCC)o2)c(O)cc1O	?	?
CC1OC(O[C@@H]2C(O)CC(O[C@@H]3C(O)C[C@@H](OC4CC[C@]5(C)[C@H](CC[C@H]6[C@@H]5CC[C@]5(C)C(C7=CC(=O)OC7)C(O)C[C@@]65O)C4)OC3C)OC2C)CC(O)C1O (stereo not given in full)	?	?
C(=N\Nc1nc2ccccc2[nH]1)/c1ccccc1	-27.1%	-29.5%
CSc1nc2ccccc2n1Cc1cccc([N+](=O)[O-])c1	i	1.2%
COc1ccc(S(=O)(=O)Nc2ccc3c(c2)n(C)c(=O)n3C)cc1	-12.9%	-9.9%
CC1CN(c2c3c(nc4ncnn24)CCCC3)CC(C)O1 (stereo not given)	-11.1%	-10.0%
Cc1ccc(NC(=O)CSc2nnnn2C)cc1S(=O)(=O)N(C)C	i	-11.1%
CC(=O)OC1CC[C@]2(C)C(CC(OC(C)=O)[C@@]3(C)C4=CC(=O)OC(c5ccoc5)[C@]4(C)CCC23)C1(C)C (stereo not given in full)	-7.0%&-14.2%	-7.6%&-25.7%&-17.1%
CCOc1ccc(CNC(=O)c2cnc(SC)nc2CC)cc1	-7.2%	-10.1%
Cc1cccc(Nc2nc3c(S(=O)(=O)c4ccccc4)nnn3c3ccccc23)c1C	i	-18.4%
O=C(Nc1cccc(Cl)c1N1CCCC1)c1cc2ccccc2o1	.	17.6%
CC(C)(C)OC(=O)N1CCN(C(=O)c2ncn3c2c(=O)[nH]c2ccccc23)CC1	-28.0%	0.7%
COc1ccccc1C(=O)Nc1ccc(C)c(S(=O)(=O)N2CCCCC2)c1	-29.7%	-24.0%
Cc1nc(SCC(=O)N2CCCCCC2)[nH]c(=O)c1C	i	-11.6%
N#Cc1cnn(-c2cccc(Cl)c2)c1-n1cccc1	i[7.34 µM]	-4.4%[7.34 µM]
COC(=O)c1ccccc1NC=C1C(=O)OC2(CCCCC2)OC1=O	i	-7.0%
COC(=O)C1=C(c2ccc(C(C)=O)cc2)C[C@@H]2CC[C@H]1N2C(=O)NCc1ccco1	-0.4%	-0.9%
O=S(=O)(Nc1ccc2nc(C(F)(F)F)[nH]c2c1)c1ccccc1	-12.0%	-25.5%
Cc1ccc(-n2c(C)cc(/C=N/NC(=O)CC3(C)OCCO3)c2C)cc1	-21.9%	-18.4%
CC(=O)NCCNC(=O)c1cccc(NS(=O)(=O)c2ccc3c(c2)OCCO3)c1	-21.2%	-5.5%
CCc1ccc2nc(N3C(=O)C(O)=C(C(=O)c4ccco4)C3c3cccs3)sc2c1 (stereo not given)	-11.0%	-0.8%
COc1ccccc1C(=O)Nc1ccc(N2CCN(C(C)=O)CC2)cc1	-14.1%	-14.6%
CCOc1ccc(CNC(=O)CCCN2C(=O)C(c3ccccc3)Oc3cccnc32)cc1 (stereo not given)	-3.0%[7.34 µM]	0.0%[7.34 µM]
Cc1ccc(NC(=O)N/C=C/c2ccc(Cl)cc2)cc1	i	-13.1%
CCN(C(=O)Cn1nc(Cc2ccncc2)c2ccccc2c1=O)c1ccc(OC)cc1	-17.6%	-11.4%
CC1CCCCC1N1CCN(C(=O)c2cccc(F)c2)CC1 (stereo not given)	.	-16.5%
CCOc1ncccc1C(=O)OCC(=O)NC1CCCCCC1	-4.6%	-9.3%
CC(C)c1ccc(NC2=CC(=O)CC(C)(C)C2)cc1	i	-18.5%
CCc1cc(C(=O)O)c(NC(=O)c2cc(OC)c(OC)c(OC)c2)s1	i	-20.5%
COc1cc(C2c3c([nH]c(=O)[nH]c3=O)Nc3ccc4ccccc4c32)ccc1O (stereo not given)	?	-2.7%
CCCC(=O)Nc1ccccc1OCc1cc(=O)n2cc(C)ccc2n1	-11.4%	-20.6%
COc1ccc(CC(=O)NNS(=O)(=O)c2ccccc2[N+](=O)[O-])cc1	-3.2%	-9.5%
COc1ccc(-c2cc(C(=O)NCCN3CCOCC3)c3ccccc3n2)c(OC)c1	-0.2%	-13.8%
CSc1ccc(C2CC(=O)Nc3c2c(=O)n(C)c(=O)n3C)cc1 (stereo not given)	-7.2%	8.0%
O=C(COC(=O)c1ccc(F)c(S(=O)(=O)N2CCOCC2)c1)NCc1ccco1	-6.6%	-17.9%
CCOC(=O)c1c(C)[nH]c(CCC(=O)Nc2cc(C)ccc2OC)c1C	i[7.34 µM]	-15.9%[7.34 µM]
O=C1CCC(C(=O)OCc2c(Cl)cccc2Cl)N1 (stereo not given)	i	-0.6%
O=C(NNC1=C(C(=O)C(F)(F)F)CCC1)c1ccc(Cl)cc1	i	-11.6%
CC1(C)CC2CC(C)(CN2C(=S)Nc2ccccc2)C1 (stereo not given)	-13.5%	-9.7%
CCCc1cc(=O)[nH]c(SCC(=O)c2ccc3c(c2)NC(=O)CO3)n1	?	-9.1%
COc1ccc(C(=O)Oc2cccc3cccnc23)cc1[N+](=O)[O-]	i	0.0%
COc1ccc(OC)c(NC(=O)c2cnc(N3CCCC3)nc2C)c1	-5.2%	-7.1%
CCc1ccc(NC(=O)C(C)OC(=O)c2cc(=O)[nH]c3ccc(S(=O)(=O)Nc4ccc(F)cc4)cc23)cc1 (stereo not given)	i	-15.6%
COc1cc(NC(=O)c2cc(-c3ccccc3Cl)on2)cc(OC)c1OC	i	?
O=C(CNC(=O)C(c1ccccc1)c1ccccc1)N/N=C\c1ccc2c(c1)OCO2	?	?
O=Cc1cn(Cc2c(F)cccc2Cl)nc1-c1ccccc1	-15.5%	-16.8%
CSCCC(N=C1NS(=O)(=O)c2ccccc21)C(=O)N1CCCC(C(N)=O)C1 (stereo not given)	i	-17.6%
COc1cc(OC)c(NC(=O)c2c(N3CCCC3=O)c3cc(C)ccc3n2C)cc1Cl	5.4%	-8.1%
Cc1ccc(C(=O)NNC2=Nc3cccc4cccc2c34)cc1	-25.6%	-13.6%
CC(=O)c1ccc(NC(=O)CCc2c(C)nn(-c3ccc(N4CCCCC4)nn3)c2C)cc1	-1.9%	-9.5%

Remaining list, next part
SMILES	VACV mCherry inh	VACV Venus inh
Cc1ccc(C(=O)COC(=O)CSc2cccc3cccnc23)c(C)c1	i	-6.3%
Cc1cccc(SCc2noc(C(=O)NC(C)C)c2C(=O)O)c1	i	-7.3%
COc1ccc2nc(N3CCCC(C(=O)NCCCN4C(C)CCCC4C)C3)sc2c1 (stereo not given)	-24.6%	-14.1%
CC1Nc2nc(N(C)C)[nH]c(=O)c2NC1C (stereo not given)	-11.9%	1.4%
O=c1ccc2cc(S(=O)(=O)N3CCN(c4ccccc4)CC3)ccc2o1	-3.4%	0.0%
O=C(NCCc1ccccc1)c1cccc(NC(=O)c2ccccc2)c1	i	-17.4%
O=S(=O)(c1ccc(=S)[nH]c1)N1CCCC1	i	-7.3%
COC(=O)c1ccc(Nc2nc(C)cc(C)n2)cc1	i	-8.9%
CCN(CC)C(C(=O)NC1CCCCC1)c1ccc(C)cc1 (stereo not given)	?	2.1%
C/C(=N\OC(=O)c1ccc(F)cc1)c1sc(-c2ccccc2)nc1C	.	6.6%
Cc1cc(C(=O)COC(=O)/C=C/c2cccc(F)c2)c(C)n1C	1.7%	6.3%
COc1ccccc1CN1CCN(Cc2ccc(Cl)cc2)CC1	i	-7.9%
O=C(Cn1ncc2c3ccccc3n(Cc3ccccc3)c2c1=O)NCCCN1CCCC1=O	i	-7.2%
CCC(C)NS(=O)(=O)c1ccc(OCC(=O)N2CCN(CC)CC2)cc1 (stereo not given)	-6.1%	-9.6%
O=C(O)c1cccc(CSc2nnc(-c3ccco3)o2)c1	-5.8%	-1.4%
Cc1nnc(NC(=O)c2sc3ccccc3c2Cl)s1	-5.3%	-28.8%
Cc1c(C(=O)Nc2ccc3c(c2)OCCO3)oc2ccc(Br)cc12	i	-16.6%
CC(O)[C@H]1CNC(=O)C(=O)N1CCC12CC3CC(CC(C3)C1)C2 (stereo not given in full)	i	-4.0%
COc1ccc([C@H]2CC(=O)C=C(c3cc(C)ccc3OC)C2)cc1	-7.7%	-22.2%
CC(=O)NCCNc1nc(-c2ccccc2C(F)(F)F)nc2ccccc12	-2.5%	-0.2%
CCC(Sc1ncnc2c1c(-c1ccccc1)cn2-c1ccc(OC)cc1)C(=O)OC (stereo not given)	-9.2%	-13.6%
Cc1ccc(C)n1-c1sc2c(c1C#N)CCCC2	-13.9%	-4.7%
CC(C)OCCCn1c(=O)c2ccccc2n2c(-c3ccc(F)cc3)nnc12	-16.2%	-17.6%
CC(Oc1ccc2c(-c3ccccc3)cc(=O)oc2c1)C(=O)NCC(O)c1ccccc1 (stereo not given)	-10.1%	-9.2%
O=C(C/C=N/OCc1ccccc1F)c1cnc(-c2ccc(Cl)cc2)s1	.	-10.5%
CSc1ncc(Cl)c(C(=O)Nc2nc3ccc(F)cc3s2)n1	-0.2%	-1.7%
Nc1c(Cl)cc(C2=NCCn3c2c2ccccc2[n+]3[O-])cc1Cl	-2.9%	-12.5%
O=C(NCCS(=O)(=O)NCCc1ccccc1)c1ccccc1	-14.6%	-13.4%
C#CCN(C[C@H]1[C@H](OC(=O)NCc2ccc(OC)c(OC)c2)[C@H](OC(=O)NCc2ccc(OC)c(OC)c2)C[C@@H](C(=O)OC)[C@H]1C(=O)OC)S(=O)(=O)c1ccc(C)cc1	i	-24.0%
O=C(Cn1cnc2c(nnn2-c2ccccc2)c1=O)N1CCCc2ccccc21	i	-28.3%
OC1/C(=C/c2ccc(C(F)(F)F)cc2)N2CCC1CC2 (stereo not given)	-29.5%	-25.3%
Cc1nn(CC(=O)Nc2cc(S(=O)(=O)N(C)C)ccc2Cl)c(C)c1[N+](=O)[O-]	-0.2%	-12.8%
Cc1ccc(NC(=O)c2sc(-n3nc(C)c(CCC(C)C)c3C)nc2C)cc1C	-2.8%	-11.1%
Cc1cccc(C)c1NC(=O)CCS(=O)(=O)c1ccc2c(c1)CC(C)N2C(=O)C1CC1 (stereo not given)	-8.1%	-14.4%
COc1ccc(-c2nc(C#N)c(NCc3ccc(C)cc3)o2)cc1OC	.	-27.4%
O=C(CSc1nnc(-c2ccccc2O)n1Cc1ccccc1)NNC(=O)c1ccccc1O	-24.0%	-16.7%
Cc1cn([C@H]2C[C@H](O)[C@@H](CNCc3cccn3-c3ccncc3)O2)c(=O)[nH]c1=O	-9.9%	-5.2%
O=C(COc1ccc(Cl)cc1Cl)N(C1CCCCC1)C1CCS(=O)(=O)C1 (stereo not given)	-8.5%	-25.3%
N#Cc1c(NC(=O)CSc2ncn[nH]2)sc2c1CCCC2	?	?
Cc1oc(-c2ccc(C(=O)NCCCOC(C)C)cc2)nc1CS(=O)(=O)c1ccccc1	-13.1%	-20.7%

As entered above.
O=C(COc1ccc(Cl)cc1Cl)N(C1CCCCC1)C1CCS(=O)(=O)C1 (stereo not given) @ VACV mCherry inh: -8.5%
Cc1oc(-c2ccc(C(=O)NCCCOC(C)C)cc2)nc1CS(=O)(=O)c1ccccc1 @ VACV mCherry inh: -13.1%
Cc1nn(CC(=O)Nc2cc(S(=O)(=O)N(C)C)ccc2Cl)c(C)c1[N+](=O)[O-] @ VACV mCherry inh: -0.2%

The list continues.
SMILES	VACV mCherry inh	VACV Venus inh
O=S1(=O)C=C(SCc2ccc(F)cc2)Nc2ccccc21	i	-4.4%
Cn1cccc1Cc1nnc(SCC(=O)Nc2cccc(F)c2)n1-c1ccc(F)cc1	-18.7%	-11.3%
O=C(O)Cc1cc2c(s1)CCCCC2	-16.2%	-13.0%
COc1ccccc1NC(=O)Cc1nnc(SCC(=O)Nc2ccccc2F)n1C	5.9%	10.0%
Nc1nc2c(ncn2[C@@H]2O[C@H](CNCc3cnc(N4CCOCC4)nc3)[C@@H](O)[C@H]2O)c(=O)[nH]1	i	-1.4%
CCc1ccccc1NC(=O)Cn1c(=O)oc2ccccc21	-20.7%	-13.1%
O=C(/C=C/c1ccco1)N1CCN(S(=O)(=O)c2cccc([N+](=O)[O-])c2)CC1	i	-9.0%
COc1ccccc1NS(=O)(=O)c1cc(C(=O)NCC(c2ccc(F)cc2)N2CCOCC2)ccc1C (stereo not given)	-20.8%	-19.8%
CCOc1ccc(NC(=O)C2CCC(C)(C(=O)O)C2(C)C)cc1 (stereo not given)	3.2%	8.0%
